High-throughput results: PubChem BioAssay, National Center for Advancing Translational Sciences (NCATS)
SmPrx2 inh: blocks S. mansoni peroxiredoxin 2 enzymatic activity; S. mansoni Prx2 activity coupled to TGR/GSH (TGR is thioredoxin glutathione reductase), NADPH fluorescence loss, qHTS; some inactives read as strong as hits; Potency, µM; actives 0.07% (n = 65,000); AID 448; active means full or partial inhibition curve with a strong effect at the top dose; inconclusive means weaker partial or single-point curve; inactive means no accepted curve; also: series up to 57 µM; many of its hits are not listed in these tables
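Prx2 activity was followed as the loss of NADPH fluorescence (ex 365/em 450 nm), read every 30 sec for 8 min after H2O2 start. The enzyme mix (50 nM Prx2, 25 nM TGR, GSH, NADPH; pH 7.4 phosphate buffer) was incubated with compound for 15 min at room temperature first.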
LT uptake inh: inhibitors of anthrax lethal toxin internalization; Cells, anthrax lethal toxin internalization, FRET ratio (460/530); Potency, µM (doses to about 40 µM), without a hit: at the top dose activity change, negative = inhibition, hits mostly inhibitors; actives 0.67% (n = 70,000); AID 912; active = well fitted falling ratio curve with the 530 nm signal flat; inconclusive = other ratio curves, or a change in one channel alone; inactive = flat curves in the ratio and both channels; the % refers to the ratio; also: % is scaled to controls: 0 for no effect and ±100 for the full control effect; nearly all actives have a fitted effect of over 50% in size; tested in ME-180 cells; beta-lactamase reporter
* hit, by the source's call; u = inconclusive; x = not tested or not shown; [ ] = dose if it differs, or a comment. Potency is read from the fitted curve at half-maximal effect. The list is partial. The share of hits here may be higher or lower than overall.

SMILES	SmPrx2 inh	LT uptake inh
C/C=C/C=C/C=O	x	9.7%
CCN(CC)c1nc(N(CC)CC)[nH]c(=O)n1	>57	10.6%
Nc1cc(N)cc(-c2nc3ccccc3[nH]2)c1	>57	1.1%
O=C(CN1CCC(n2nnc3cc(F)ccc32)CC1)NCCc1nc2ccccc2[nH]1	>57	-13.1%
C#CCCCO/N=C1/C[C@@H](O)[C@@H](O)[C@@H]2[C@H]3C(=O)N(c4ccc(F)cc4F)C(=O)[C@@H]3CC[C@@H]12	x	-3.2%[8 µM]
COC(=O)c1ccccc1NC(=O)c1cc(OC)cc(OC)c1	>57	-16.6%
O=C(CCCOc1ccc(Cl)cc1Cl)NCCCO	>57	u
COc1ccc(-n2c(C)nc3cc(C(=O)N4CCOCC4)ccc32)cc1	>57	-8.5%
O=C(c1cnccn1)N1CCC2(CCCN(c3ccncc3)C2)CC1	>57	u
Cc1cccc2cc(CN(CCCO)C(=O)Nc3ccccc3Cl)c(=O)[nH]c12	>57	6.4%
O=C1NC(Nc2nccs2)(C(F)(F)F)C(=O)N1CCc1ccccc1 (configuration not stated)	>57	-8.9%
CC(=O)NCCn1c(SCc2cc(=O)n3cc(Cl)ccc3n2)nc2ccccc2c1=O	>57	x
O=C(Cn1ncc2c(=O)oc3ccccc3c21)N1CCN(C(=O)c2ccco2)CC1	u	-4.2%
CCCC(C)n1[nH]c(=O)c2c(C)cc(C)nc21 (configuration not stated)	>57	-11.5%
CCN(CC(=O)NC)S(=O)(=O)c1ccc(Br)cc1	>57	-8.2%
COc1cc(CC(=O)Nc2ccc(S(=O)(=O)N(C)C)cc2)cc(OC)c1OC	>57	5.7%
Cc1c(C(=O)NCc2ccco2)oc2ccc(S(=O)(=O)N3CCC4(CC3)OCCO4)cc12	>57	-11.4%
CCCCCC(=O)Nc1ccc(N2CCN(C(=O)c3ccccc3)CC2)cc1	>57	-7.8%
O=C(NCc1ccco1)c1cnn2c(C(F)F)cc(-c3ccccc3)nc12	>57	5.1%
CCOC(=O)N1CCC(NC(=O)CS(=O)Cc2nc(-c3ccc(OC)c(OC)c3)oc2C)CC1 (configuration not stated)	>57	4.7%
c1ccc2oc(SCc3nc4ccccc4s3)nc2c1	>57	-14.9%
O=C(Cn1cnc2c(nnn2-c2cccc(Cl)c2)c1=O)N1CCOCC1	>57	8.8%
Cc1nc2ccc(S(=O)(=O)N(C)CC(=O)N3CCc4ccccc43)cc2s1	>57	-5.3%
CCOC(=O)C1(c2ccccc2)NC(c2ccc(N(C)C)cc2)C2C(=O)N(C)C(=O)C21 (configuration not stated)	>57	-2.9%
COC(=O)C(C(=O)Nc1cc(C)on1)C1CCCCCC1 (configuration not stated)	>57	-9.0%
O=[N+]([O-])c1cccc(Cl)c1Cl	x	-7.3%
O=C(CSc1nnc(-c2ccco2)o1)NC(=O)Cc1ccccc1	>57	1.0%
CCc1ccc(NC(=O)N(CCCN2CCOCC2)C(C)c2cc3cccc(OC)c3o2)cc1 (configuration not stated)	>57	-11.3%
Cc1ccc(C(=O)NC2CCCCCC2)o1	>57	-2.5%
CS(=O)(=O)N(CC(=O)O)c1ccc(Oc2ccccc2)cc1	>57	-1.4%
CCN(CC(=O)Nc1ccc2c(c1)CCC2)Cc1nc2ccccc2c(=O)[nH]1	>57	-23.4%
Cc1nc(NCC2CCCO2)nc2c1C(=O)CC(C)(C)C2 (configuration not stated)	>57	u
COc1ccccc1-c1nc(NC(C)=O)n[nH]1	>57	u
CC1CN(c2nc3c(c(=O)n(C)c(=O)n3C)n2Cc2c(F)cccc2Cl)CC(C)O1 (configuration not stated)	>57	u
Cc1ccc(Nc2nc(N)nc(CSc3nccn3C)n2)cc1	>57	14.6%
CCCc1nnc(NC(=O)C2CCCO2)s1 (configuration not stated)	>57	3.5%
COc1ccc(OCc2nnc(SC(C)C(=O)Nc3nccs3)n2-c2ccccc2)cc1 (configuration not stated)	x	u
CC(=O)Nc1sc2c(c1C#N)CCCCC2	>57	1.2%
Clc1c(CSc2nc3ccccc3o2)nc2sccn12	>57	-13.7%
CCOC(=O)N/N=C1/C[C@@H](O)[C@@H](O)[C@@H]2[C@@H]3C(=O)N([C@@H](C)c4ccccc4)C(=O)[C@H]3CC[C@H]12	x	-3.0%[0.064 µM]
O=C(COC(=O)COc1ccccc1)Nc1ccccc1OC(F)F	>57	u
Cc1cc(C)nc(SC2CCCCC2O)n1 (configuration not stated)	>57	u
COc1ccc(CCNC(=O)Cn2cnc3c(cnn3-c3ccccc3Cl)c2=O)cc1OC	>57	9.9%
CC(=O)Oc1c(C)cc(O)c2ccccc12	>57	9.6%
Cc1ccc(Cn2nnc3c(=O)[nH]c(C4CCN(C(=O)Cc5cccs5)CC4)nc32)cc1	>57	-4.9%
Cc1ccc(S(=O)(=O)Cn2nnnc2C(C)N2CCN(C(=O)c3ccco3)CC2)cc1 (configuration not stated)	>57	-4.4%
CCC(=O)Nc1cccc(-c2nc3ccccc3o2)c1	>57	-10.9%
COc1cc(C2/C(=C(/O)c3ccc(F)cc3)C(=O)C(=O)N2CCCC(=O)O)ccc1O (configuration not stated)	>57	7.2%
Cc1ccccc1CSc1nc2n(n1)C(c1cccs1)C1=C(CCCC1=O)N2 (configuration not stated)	>57	u
Cc1cc(C)nc(SCc2csc(N)n2)n1	x	u
CC(C)N(Cc1nc(-c2ccccc2)no1)C(=O)c1ccc(Cl)cc1	>57	u
O=C(O)c1ccccc1C(=O)N1CCN(c2ccccc2)CC1	>57	-8.7%
COc1cccc2c1nc(C)c1cc(C)oc12	x	-13.2%
CCCCN1C(=O)NC(=O)C2(Cc3c(nc4ccccn4c3=O)N3CCc4ccccc4C32)C1=O (configuration not stated)	>57	-8.3%
CCN(Cc1ccncc1)C(=O)c1cccs1	x	-14.4%
C/C(Cl)=C\Cn1c(N2CCCC2)nc2c1c(=O)[nH]c(=O)n2C	>57	18.6%
CNC(=O)c1ccccc1NC(=O)c1c(O)c2c([nH]c1=O)CCCC2	>57	-2.4%
CN=C=S	x	-21.9%
CCOc1ccccc1-n1c(SCC(N)=O)nnc1-c1ccco1	>57	-5.4%
O=C(O)c1oc2ccccc2c1CN1CCN(c2ccccc2)CC1	>57	0.1%
(more compounds)
SMILES	SmPrx2 inh	LT uptake inh
O=C(CSc1nc(C2CCCCC2)n(-c2ccccc2)n1)NCCN1C(=O)CSC1=O	>57	-5.2%
CCOC(=O)C1CCCN(c2ncnc3c2cnn3-c2cccc(C)c2)C1 (configuration not stated)	>57	0.4%
COc1ccc(CCn2nnnc2C(c2ccc(C)cc2)N2CCN(C)CC2)cc1OC (configuration not stated)	>57	-2.9%
COc1ccc(-n2c(Cn3c(=O)sc4ccccc43)nnc2SCC(N)=O)cc1	>57	-3.4%
COc1ccc([C@@H]2CC(=O)c3c(O)cc(O[C@H]4O[C@@H](CO[C@H]5O[C@@H](C)[C@@H](O)[C@@H](O)[C@@H]5O)[C@@H](O)[C@@H](O)[C@@H]4O)cc3O2)cc1O	>57	-0.9%[3.58 µM]
CN(C)Cc1ccccc1-c1nccc(Nc2ccc(F)cc2)n1	>57	-27.3%
Cc1c(C(=O)Nc2ccc(-n3cnnn3)cc2)oc2ccccc12	>57	11.6%
CCOc1cc(C2C3=C(CCCC3=O)N(C)C3=C2C(=O)CCC3)cc(Cl)c1O	>57	8.0%
CS(=O)(=O)Nc1ccccc1Oc1ccccc1	>57	-17.6%
Nc1nnnn1CCO	>57	u
Cc1ccc(-c2[nH]nc3c2C(c2ccccc2OC(=O)N2CCOCC2)C(C#N)=C(N)O3)cc1 (configuration not stated)	>57	-5.6%
CC(=O)c1ccc(NC(=O)CSc2nnc(Cc3cccn3C)n2-c2ccc(F)cc2)cc1	>57	-3.3%
CCOc1cc(N2C(=O)CC3CS(=O)(=O)CC32)c(OCC)cc1NC(=O)c1ccccc1 (configuration not stated)	>57	9.1%
CCOC(=O)C(C)(C)Sc1ncnc2nc[nH]c12	>57	-6.1%
C(=N\n1cnnc1)/c1ccccc1OCCOc1ccccc1	x	7.9%
CC(C)(Sc1cc(C(C)(C)C)c(O)c(C(C)(C)C)c1)Sc1cc(C(C)(C)C)c(O)c(C(C)(C)C)c1	>11.4	-4.2%[3.58 µM]
CN1CCN(c2ccc(NC(=O)c3cccc(OCc4ccccc4)c3)cc2)CC1	>57	5.7%
O=C(CSc1ccccc1C(=O)O)NCc1ccco1	>57	-1.7%
c1ccc2c(c1)CCN(c1nc3cc4c(cc3s1)OCO4)C2	>57	x
CC(C)CCNC(=O)CN(Cc1ccc2c(c1)OCO2)C(=O)Cn1nnc(-c2cccs2)n1	>57	12.2%
Cc1cc(C)n2nc(C(=O)Oc3ccc4c(c3)OCO4)nc2n1	>57	4.0%
Cc1[nH]c2c(C)cccc2c(=O)c1Br	>57	4.4%
CN1CCN(CC(=O)N2c3ccccc3Sc3cc4ccccc4cc32)CC1	>57	-6.8%[8 µM]
O=S(=O)(c1ccccc1)N1CCC2(CCCN(c3ccncc3)C2)CC1	>57	1µM*
Cc1ccc(Cn2c(CN3CCN(C(=O)c4ccco4)CC3)nc3c2c(=O)n(C)c(=O)n3C)cc1	>57	x
CCOC(=O)c1cccc(NC(=O)CSc2nnnn2CC)c1	>57	-0.8%
COc1ccc(CCNC(=O)CCn2c(SCC#N)nc3ccccc3c2=O)cc1OC	>57	5.6%
CC(Cc1cccs1)NC(=O)Nc1ccccc1 (configuration not stated)	>57	-2.2%
CCCCCn1c(-c2ccco2)nc2nc3ccccc3nc21	>57	x
COc1ccc2nc3c(c(-c4ccccc4)c2c1)CCC3	>11.4	u
C=Cn1c(P(=S)(N2CCOCC2)N2CCOCC2)cc2c1CCCC2	>57	u
O=C(Cn1nc(Cc2cccnc2)c2ccccc2c1=O)N1CCN(c2ccccn2)CC1	>57	u
O=S(=O)(NCc1cccnc1)c1cccc2cccnc12	x	-4.4%
CC(=O)Nc1cccc(N(C)S(C)(=O)=O)c1	>57	12.0%
Cc1ccc(C(=O)CSc2nnc(-c3cccnc3)n2N)cc1	>57	-2.1%
COC(=O)c1ccccc1S(=O)(=O)N(Cc1cc2cc3c(cc2[nH]c1=O)OCO3)C1CCCCC1	>57	-16.5%

Looked up by compound from above, 4 records:
SMILES	SmPrx2 inh	LT uptake inh
Cc1ccc(C(=O)CSc2nnc(-c3cccnc3)n2N)cc1	>57	-2.1%
CCCCCn1c(-c2ccco2)nc2nc3ccccc3nc21	>57	x
C=Cn1c(P(=S)(N2CCOCC2)N2CCOCC2)cc2c1CCCC2	>57	u
O=S(=O)(NCc1cccnc1)c1cccc2cccnc12	x	-4.4%

(listing goes on)
SMILES	SmPrx2 inh	LT uptake inh
Cc1noc(C(=O)Nc2c(C)nn(Cc3ccccc3)c2C)c1Cl	>57	-1.0%
CN(C)c1ccc(-c2ccc3ncnc(-n4ccnc4)c3c2)cc1	>11.4	7.94µM*
CCOC(=O)c1c(C)c(C(=O)O)n(C)c1C	>57	-3.7%
COc1ccc(CNC(=O)C2CC(c3ccc(OC)cc3)=NO2)cc1 (configuration not stated)	>57	-15.1%
CN(C(=O)COC(=O)COc1ccccc1F)C1CCS(=O)(=O)C1 (configuration not stated)	>57	-0.2%
O=C(Cn1nnc(-c2ccccc2)n1)OC1CCOC1=O (configuration not stated)	>57	0.8%
Cc1cccc(N2CSC3=C(C#N)C(c4ccc(C)o4)CC(=O)N3C2)c1 (configuration not stated)	>57	x
CCCCCc1c(C)nc(N2CCc3ccccc3C2)[nH]c1=O	>57	1.0%
CO[C@H]1COC(=O)C/C=C\[C@@H](C)COC(=O)[C@H]2CCCN2C(=O)C/C=C\[C@H]1C	x	-16.6%[8 µM]
COc1ccc(OC)c(-n2nnnc2SCC(=O)Nc2nc(C)c(C)s2)c1	>57	10.4%
Cc1ccc(-c2nc3cc(NC(=O)C(C)C)ccc3o2)cc1	>57	1.3%
CC(NC(=O)C1CCC(=O)N1Cc1ccc(F)cc1)c1ccc2c(c1)OCCO2 (configuration not stated)	>57	2.5%

Five entries from above, arranged by count of non-hydrogen atoms, high to low.
SMILES	SmPrx2 inh	LT uptake inh
COc1ccc(OC)c(-n2nnnc2SCC(=O)Nc2nc(C)c(C)s2)c1	>57	10.4%
COc1ccc(CNC(=O)C2CC(c3ccc(OC)cc3)=NO2)cc1 (configuration not stated)	>57	-15.1%
Cc1ccc(-c2nc3cc(NC(=O)C(C)C)ccc3o2)cc1	>57	1.3%
O=C(Cn1nnc(-c2ccccc2)n1)OC1CCOC1=O (configuration not stated)	>57	0.8%
CCOC(=O)c1c(C)c(C(=O)O)n(C)c1C	>57	-3.7%

Next section:
SMILES	SmPrx2 inh	LT uptake inh
O=C(NCc1ccccn1)Nc1cccc(NC(=O)NCc2ccccn2)c1	>57	0.5%
O=C(O)CCc1nc(-c2ccccc2Cl)no1	>57	u
COc1nc(OC)nc(N2CCC(C(=O)NCc3ccco3)CC2)n1	>57	0.0%
CCCC1(C(=O)OC)NC(c2ccc(OC)c(OC)c2)C2C(=O)N(c3ccc4c(c3)OCO4)C(=O)C21 (configuration not stated)	>57	1.4%
CC(C)COC(=O)C(C#N)c1nc2ccccc2nc1N1CCN(Cc2ccccc2)CC1 (configuration not stated)	>57	-7.1%
O=C(NC1CCCCC1)C(c1ccco1)N(C(=O)c1csnn1)C1CCCC1 (configuration not stated)	>57	12.2%
